Screening data deposited in PubChem BioAssay by several laboratories.
RN4220 kill: S. aureus RN4220 growth inhibition | OD600, 16 h | inhibition, % (concentration not given with the values) | actives 0.33% (n = 330,000);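 active = z-score of -3 or lower and OD600 up to 0.18 on both plates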;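 note: plate controls were untreated cells for no effect and reference antibiotic for full effect; stock transfer was 100 nL into about 80 µL; one replicate is shown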
Mtb hypoxia rep: reduces hypoxia-regulated biosensor signal in M. tuberculosis; M. tuberculosis hypoxia-regulated fluorescent reporter, fluorescence; fluorescence inhibition, % (concentration not given with the values); actives 0.1% (n = 300,000); AID 1159583;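 active = 35 to 45% if threefold the growth effect, above 45% if 1.5-fold the growth effect; inactive = the rest, general growth blockers included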;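 note: wells of about 50 µL received 100 nL stock; 0% = vehicle wells and 100% = reference inhibitor wells; whole bacteria with a GFP reporter of the hypoxia response; strong numbers were not always called active; many hits fall short of the cut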
PrP UTR inh: inhibition of PrP 5' UTR reporter expression; cell-based PrP 5' UTR mRNA reporter, plate reader; inhibition, % (concentration not given with the values); actives 0.35% (n = 340,000);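 active = every replicate at 50% or more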;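 note: 0 = median of the neutral control wells; tested in H4 reporter cells; numbers are from one replicate; inactives centre near -14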
Autofluor counter: flagged as autofluorescent in microsphere protease counterscreen | compound autofluorescence counterscreen, microsphere flow cytometry; hits give high values | fluorescence intensity (concentration not given with the values) | actives 3.1% (n = 360,000) | AID 624483;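 active = at least 3 SD above the mean of all compounds, about 16000 in these data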;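 note: 100 nL of 1 mM stock went into each well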
Sa ugtP lethal: kills S. aureus RN4220 lacking UgtP | S. aureus RN4220 ugtP deletion, OD600 growth, 16 h; some inactives read as strong as hits | growth inhibition, % (concentration not given with the values) | actives 0.54% (n = 330,000) | AID 1259309;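 active = z-score under -3 and OD600 up to 0.15 on both plates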;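 note: plate controls were untreated wells for no effect and antibiotic for full effect; wells of about 80 µL received 100 nL stock; the first replicate is given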
BJeLR viability: BJeLR cell viability loss | BJeLR (HRASV12) viability, CellTiter-Glo ATP luminescence, 48 h; reference of the scale not given here | actives 0.17% (n = 300,000) | inhibition, % (no concentration beside the values);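 active = replicate mean above 50%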;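 note: 50 nL library stock added to about 25 µL; numbers are from one replicate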
Mtb hypoxia rep growth: further read-out of Mtb hypoxia rep, marked with its call; growth inhibition, %; measured here: M. tuberculosis growth (absorbance);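 0% = vehicle and 100% = reference antibiotic; read after six days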
The depositor's hits bear a star; . = not tested or not shown.

no.	mol	Mtb hypoxia rep growth	Mtb hypoxia rep	Sa ugtP lethal	PrP UTR inh	RN4220 kill	BJeLR viability	Autofluor counter
1	Cc1c(C(=O)C(=O)N2CCCc3ccccc32)c2ccccc2n1C	11	3	0	-6	3.5	-6	1998
2	C=CCNC(=S)NC(CC(=O)OC)c1ccc2c(c1)OCO2 (centres undefined)	-6	-11	10	-35	1.8	-27	4643
3	COc1ccccc1-c1cc(C(=O)NCCc2ccccc2)no1	-6	-79	9	-47	6.3	-6	3860
4	COc1ccc2oc(C)c(C(N)=O)c2c1	7	-3	-1	-10	-2.6	-3	5889
5	COc1ccc(NC(=O)c2ccc3c(c2)CCN3S(=O)(=O)c2ccccc2)c(OC)c1	-11	6	0	-19	-7.1	-30	6032
6	O=C(Nc1ccccc1N1CCOCC1)c1cccc2c(Br)cccc12	13	0	-4	-7	-0.4	3	4293
7	COc1ccc(C(=S)Nc2ccc(N(C)C)cc2)cc1	3	9	-1	-111	9.3	-4	4001
8	CCCCCC(=O)N1CC2(CC(c3cccc(NC(=O)CC(c4ccccc4)c4ccccc4)c3)=NO2)C[C@@H]1C(N)=O (some centres undefined)	.	.	.	-11	.	-3	3861

Compound profiles, as listed above. Screens in order: Mtb hypoxia rep growth	Mtb hypoxia rep	Sa ugtP lethal	PrP UTR inh	RN4220 kill	BJeLR viability	Autofluor counter
Results for `COc1ccccc1-c1cc(C(=O)NCCc2ccccc2)no1` = -6	-79	9	-47	6.3	-6	3860
Results for `Cc1c(C(=O)C(=O)N2CCCc3ccccc32)c2ccccc2n1C` = 11	3	0	-6	3.5	-6	1998

Following part:
no.	mol	Mtb hypoxia rep growth	Mtb hypoxia rep	Sa ugtP lethal	PrP UTR inh	RN4220 kill	BJeLR viability	Autofluor counter
9	O=C(O)CNC(=O)CC1S/C(=N/N=Cc2ccccc2O)NC1=O (centres undefined)	11	11	4	.	3.1	.	.
10	COc1ccc(C(=S)N2CCN(c3cccc(Cl)c3)CC2)cc1	7	10	0	8	4.9	-2	4093
11	CCn1c(C)c(C)c2cc(C(=O)NCCCN3CCCCC3C)ccc21 (centres undefined)	5	-4	-1	0	-2.0	5	8244
12	Cc1ccc(NS(=O)(=O)c2cc(C(=O)Nc3cccnc3)ccc2C)cc1	6	7	2	-11	-2.0	-2	5739
13	O=C(O)C1CC1C(=O)Nc1nc2c(Cl)cccc2s1 (centres undefined)	-3	14	-2	-14	4.1	-15	3929
14	CC(CC(=O)NC1CCCC1)=NNC(=O)c1ccc([N+](=O)[O-])c(Cl)c1	3	0	1	.	7.1	.	.
15	Cc1cc(C)c(C)c(S(=O)(=O)N2CCN(c3ncnc4ccccc34)CC2)c1C	9	1	1	13	5.9	.	8771
16	C=CCn1c(SCc2ccc(C(=O)NCCO)cc2)nc2ccccc2c1=O	9	10	3	-9	0.0	1	4121
17	CCCN1C(=O)/C(=C/c2ccc(C)o2)SC1=Nc1ccc(OC)cc1	2	1	10	-16	6.5	5	2348
18	O=c1[nH]c(=S)n(C2CC2)c(O)c1C=Nc1cccc(C(F)(F)F)c1	13	-1	9	-7	5.4	-9	10426
19	CO/N=C/c1c(-c2ccc(Cl)cc2)nc2cc(C)ccn12	.	.	.	-42	.	7	4735
20	NC(=NN=Cc1cccc([N+](=O)[O-])c1)c1nonc1N	-5	-6	9	.	5.5	.	.
21	COCCOC(=O)/C(C#N)=C/c1cn(Cc2ccccc2)nc1-c1cccnc1	15	12	-1	-32	5.5	6	3744
22	O=C(NC(=S)Nc1cccnc1)c1cccc(Br)c1	-1	1	13	-15	8.2	-2	5683
23	O=C(O)C1CCCCC1C(=O)Nc1ccc2c(c1)OCCO2 (centres undefined)	9	5	2	-8	3.8	-5	11029
24	CCOC(=O)C1(Cc2ccc(OC)cc2)CCN(C(=O)CN2CCCCC2=O)CC1	2	9	1	-31	8.2	9	4569
25	Cc1cc(NC(=O)CSCC(=O)Nc2nc3ccccc3[nH]2)no1	2	7	1	-5	3.6	4	.
26	COC(=O)c1ccc(-c2nc(CN3CCN(Cc4cccc(C)c4)CC3)c(C)o2)cc1	4	7	3	-21	3.9	-1	3518
27	CCOC(=O)C1=C(CN2CCN(c3ccc(F)cc3)CC2)NC(=O)NC1c1cccs1 (centres undefined)	.	.	3	-14	0.7	0	2799
28	CCOC(=O)C1(CC)NC(c2ccc(OC)cc2OC)C2C(=O)N(C)C(=O)C21 (centres undefined)	-7	2	-1	-9	-2.5	16	4198
29	CCC1Oc2ccc(C)cc2N(CC(=O)NCCCN2CCCC2)C1=O (centres undefined)	0	1	0	-12	1.1	-4	6243
30	COc1cc(C(=O)N/N=C2\CCS(=O)(=O)c3ccc(F)cc32)cc(OC)c1OC	.	.	.	-11	.	-4	2613
31	CCOC(=O)C1=C(C)NC2=C(C(=O)CC(C)(C)C2)C1c1ccsc1 (centres undefined)	1	-2	6	6	1.7	1	9662
32	CC(NC(=O)CSc1nc(C2CC2)n(-c2ccccc2)n1)c1ccco1 (centres undefined)	-3	6	1	-23	2.2	.	.
33	COc1cccc(-c2cc(C(F)(F)F)n3ncc(S(=O)(=O)c4ccccc4)c3n2)c1	1	1	-11	-17	4.3	4	9808
34	Cc1ccc(-c2cc(C(=O)N/N=C/c3ccco3)n[nH]2)s1	.	.	.	-19	.	3	1939
35	CC12CN3CC(C)(CN(C1)C3c1ccco1)C2=O (centres undefined)	.	.	7	-12	-0.1	3	4218
36	O=C(CN1CCN(CC(=O)c2ccccc2)CC1)c1ccccc1	0	14	-5	5	0.7	.	3026
37	Cc1cc(C)nc(NS(=O)(=O)c2ccc(NC(=S)NC(=O)c3cccnc3)cc2)n1	2	6	38	-12	3.0	2	4981
38	Cc1cccc(-n2c(SCC(=O)N3CCC(C(=O)O)CC3)nc3ccccc3c2=O)c1C	-5	-2	3	-11	3.7	-3	2835
39	O=C(COC(=O)c1ccccc1)Nc1ccc2[nH]c(=O)[nH]c2c1	0	11	1	-6	-0.4	-2	5561
40	CN(CC(=O)NCCc1ccc(S(N)(=O)=O)cc1)Cc1c(F)cccc1Cl	1	6	14	-24	2.4	5	3568
41	COc1ccc(/C=C2\SC(N3CCCCC3)=NC2=O)cc1	0	10	2	.	4.8	9	3742
42	Cc1ccc(OCC(=O)Nc2ccc3c(c2)C(=O)NC3=O)cc1	14	-5	-8	-16	0.4	3	5559
43	S=c1[nH]nc(-c2cccnc2)n1-c1ccccc1	7	1	3	-21	2.8	7	6899
44	CCOc1ccc(N2CC(C(=O)N3CCCc4ccccc43)CC2=O)cc1 (centres undefined)	1	-3	6	4	5.2	-7	5979
45	CCn1c(C(=O)N2CCC(Cc3ccccc3)CC2)cc2sccc21	4	7	1	-3	4.0	4	11278
46	CC(C)(C)C(=O)N1CCN(c2ccc([N+](=O)[O-])c(-n3nc(-c4ccccc4)c4ccccc4c3=O)c2)CC1	4	5	-19	-33	7.6	10	10331
47	CCn1c(C)[n+](CC(O)COCC2CC=CCC2)c2ccccc21 (centres undefined)	26	2	1	-4	-2.2	6	11248
48	COc1ccc(Nc2nc(N)nc(CSC(=S)N3CCCCC3C)n2)cc1 (centres undefined)	-8	-6	-13	-33	-0.3	-7	5679

A few values from above:
For Mtb hypoxia rep growth, cpd 48 shows -8
For Autofluor counter, cpd 44 shows 5979
For Sa ugtP lethal, cpd 45 shows 1

Later entries:
no.	mol	Mtb hypoxia rep growth	Mtb hypoxia rep	Sa ugtP lethal	PrP UTR inh	RN4220 kill	BJeLR viability	Autofluor counter
49	COc1ccccc1C(=O)N(CN1CCCC1=O)c1cccc(Cl)c1	10	9	10	-23	6.4	3	22324*
50	O=C(c1[nH]ncc1-c1ccccc1)C1CO1 (centres undefined)	6	6	6	-50	3.3	3	4601
51	CNCCC(Oc1cccc2ccccc12)c1cccs1 (centres undefined)	14	7	-4	.	0.0	.	.
52	O=C(CSc1n[nH]c(-c2cc(Cl)ccc2Cl)n1)NCCN1C(=O)CSC1=O	4	6	5	-1	6.7	1	1981
53	CC(NC(=O)COC(=O)/C=C/c1ccc(Cl)cc1)c1ccccc1 (centres undefined)	-6	-6	-4	-13	-1.4	8	3287
54	N#CCSc1ncnc2c1cnn2CCO	5	12	4	-20	-10	5	2499
55	COc1ccc(CCNC(=O)CC2Nc3ccccc3NC2=O)cc1 (centres undefined)	11	13	-5	-19	1.2	7	6877
56	CCC1(C)Cc2c(sc3c2c(=O)n(C)c2nnc(SCCc4ccccc4)n32)CO1 (centres undefined)	9	3	3	-7	7.1	-1	3053
57	Nc1nc2c(-c3ccc(Br)cc3)nnn2c2ccccc12	-6	-5	4	-97	4.5	7	3498
58	Cc1cccc(C)c1NC(=O)CNC(=O)C(C)NC(C)c1ccccc1Br (centres undefined)	6	2	2	-10	3.6	.	7968
59	COc1cc(NC(=O)Cn2cnc3c(NCc4ccccc4)ncnc32)cc(OC)c1OC	-1	-9	0	5	0.8	.	3570
60	CCc1ccc(N2C(=O)c3ccc4c5c(ccc(c35)C2=O)CC4)cc1	13	8	-8	-39	-0.4	4	8743
61	O=C(Nc1c2c(nc3ccccc13)CCCC2)c1cccc([N+](=O)[O-])c1	4	5	3	-11	4.2	6	2653
62	CC(C)c1ccc(-c2csc(NC(=O)c3cccs3)c2C(=O)O)cc1	11	-1	28	-26	22	14	4170
63	Cc1noc(C)c1CSCC(=O)NCCN1C(=O)S/C(=C\c2ccccc2F)C1=O	3	9	3	-15	3.7	5	6007
64	CCC(CC)C(=O)Nc1cc(C(=O)OC)cc(C(=O)OC)c1	3	1	-1	-16	1.5	-5	10129
65	CC(=O)Nc1ccc(SCC(Cc2ccccc2)N2CCN(CC(C)C)CCC2=O)cc1 (centres undefined)	7	5	-3	.	3.6	.	.
66	CCOC(=O)C1=C(C)N(C)C(=O)NC1c1ccc(C)s1 (centres undefined)	0	11	3	-15	13	-4	6234
67	O=c1cc(CSc2nnc(COc3ccccc3Cl)o2)nc2sccn12	5	8	0	-29	5.7	5	10290
68	CCOP(=O)(c1ccccc1)C(O)c1ccccc1 (centres undefined)	1	10	7	5	5.0	4	2265
69	Brc1cccc2sc(N3CCCC3)nc12	12	17	2	-27	12	-6	4441
70	COc1ccc(CN2CCN(C(=O)c3cc(OC)c(OC)c(OC)c3)CC2)cc1OC	3	13	3	-14	4.3	9	22314*
71	CC(=O)C(Sc1ncnc2sc3c(c12)CCCC3)C(C)=O	.	.	.	-29	.	-20	4908
72	Cc1ccccc1NC(=S)NNC(=O)c1cccnc1	7	8	7	-21	3.8	-2	2065
73	O=c1[nH][nH]c(-c2ccccc2)c1C=Nc1ccccc1	6	3	6	-15	2.6	-17	3212
74	COc1ccc2[nH]c(C)c(CCNc3ccc(C(F)(F)F)cc3[N+](=O)[O-])c2c1	.	.	.	-6	.	-1	8068
75	ClCC1NCC(c2ccccc2Cl)c2c1[nH]c1ccccc21 (centres undefined)	0	12	-14	-2	-2.2	-2	9624
76	CC(c1ccccc1)n1c(-c2ccc(C(C)(C)C)cc2)n[nH]c1=S (centres undefined)	1	5	29	-3	-4.3	-6	4139
77	O=C(Nc1ccc(F)cc1)N1CCC(c2nc3c(nnn3Cc3cccc(Cl)c3)c(=O)[nH]2)CC1	7	-3	57	-22	-4.8	.	25569*
78	O=C(CSc1nnnn1-c1cccc(F)c1)Nc1nc2ccccc2s1	5	2	-2	9	4.9	-4	2906
79	COc1ccc(N2CCN(c3oc(-c4ccccc4OC)nc3C#N)CC2)cc1	2	1	-12	-4	5.8	-2	21565*
80	O=C(NCc1ccco1)C1CCC(N2C(=O)c3ccccc3C2=O)CC1 (centres undefined)	6	-3	-1	4	1.3	-1	12428

Reprinted at random: two entries already listed, in no set order.
no.	mol	Mtb hypoxia rep growth	Mtb hypoxia rep	Sa ugtP lethal	PrP UTR inh	RN4220 kill	BJeLR viability	Autofluor counter
67	O=c1cc(CSc2nnc(COc3ccccc3Cl)o2)nc2sccn12	5	8	0	-29	5.7	5	10290
49	COc1ccccc1C(=O)N(CN1CCCC1=O)c1cccc(Cl)c1	10	9	10	-23	6.4	3	22324*

New compounds follow.
no.	mol	Mtb hypoxia rep growth	Mtb hypoxia rep	Sa ugtP lethal	PrP UTR inh	RN4220 kill	BJeLR viability	Autofluor counter
81	CCc1ccc2c(c1)C(=NN(C)C(=S)NC)C(=O)N2	6	13	1	.	13	.	.
82	CCOC(=O)C(=CNc1ncccc1C)C(=O)OCC	7	-2	8	-16	4.3	-4	9922
83	C=CCn1c(-c2cccc(S(=O)(=O)N(CC)CC)c2)n[nH]c1=S	10	0	5	-37	2.2	1	4667
84	O=C1CC(=O)N(c2ccccc2)N1c1ccccc1	5	6	2	-14	2.5	1	2550
85	O=C(c1c(F)c(F)c(F)c(F)c1F)N1CCN(c2cccc(C(F)(F)F)c2)CC1	0	8	-11	-11	6.7	15	9355
